VDR inh: blocks the human vitamin D receptor. P11473. Potency, µM, inactives show max response, negative = inhibition, hits mostly inhibitors. AID 504847. VDR-SRC2-3 peptide fluorescence polarization, 2 h. 400,000 compounds, 0.93% hits; active means well fitted inhibition curve with a large enough effect; inconclusive means small, poorly fitted or top-dose-only effect, or another doubt; inactive means no such curve, though single readings can be large or run the other way; further: series mostly up to about 120 µM
Target sequence (P11473 whole entry, looked up): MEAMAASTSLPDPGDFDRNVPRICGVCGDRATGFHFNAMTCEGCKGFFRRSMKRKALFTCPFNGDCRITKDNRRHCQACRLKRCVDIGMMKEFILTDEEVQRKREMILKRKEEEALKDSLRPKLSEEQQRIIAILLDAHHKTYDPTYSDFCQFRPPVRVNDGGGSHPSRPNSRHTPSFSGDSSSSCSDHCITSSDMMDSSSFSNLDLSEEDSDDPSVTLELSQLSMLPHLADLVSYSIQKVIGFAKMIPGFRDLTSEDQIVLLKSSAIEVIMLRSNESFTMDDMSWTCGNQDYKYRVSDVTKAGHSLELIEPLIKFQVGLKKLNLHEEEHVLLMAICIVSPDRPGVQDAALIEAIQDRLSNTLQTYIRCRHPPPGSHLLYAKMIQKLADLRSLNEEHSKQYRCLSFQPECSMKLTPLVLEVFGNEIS
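After 23 nl compound addition and a short centrifugation, plates sat for 2 hours at ambient temperature; polarization of fluorescence then indicated loss of VDR binding to peptide SRC2-3.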
* = called active by the depositor; ? = inconclusive; & = joins results of further samples; [ ] = remark or other dose. On the % scale 0 is the no-effect control and ±100 the full control effect; potency means the concentration at half of the fitted maximal effect. An excerpt; the hit share may differ from the screen's.

Structure | VDR inh
COC(=O)c1ccc(N(CC(=O)NC2CCCCC2)C(=O)CNC(=O)c2ccco2)cc1 | -2%
CC1CCCC(C)N1C(=O)COC(=O)CCc1nc2ccccc2c(=O)[nH]1 (stereo not drawn) | 6%
O=C(NCCCn1ccnc1)C(=O)NCC(c1cccnc1)N1CCN(c2ccc(F)cc2)CC1 (stereo not drawn) | -5%
CC(C)Oc1cc(S(=O)(=O)N2CCCCC2)ccc1N | -6%
O=c1ccn(-c2ccccc2)[nH]1 | -16%
CCOC(=O)C(=NC1CCS(=O)(=O)C1)NNc1cc(Cl)ccc1Cl (stereo not drawn) | ?
CCOc1ccc2oc(=O)cc(CN3CCN(C(=O)c4ccco4)CC3)c2c1 | -3%
CC(C)(C)NC(=O)C[n+]1ccc(C(N)=O)cc1 | 16%
COc1ccc(/C=C/C(=O)Nc2ccc(C)c(S(=O)(=O)N3CCOCC3)c2)cc1 | -12%
CC(=O)C1=C(C)NC(SCc2cccc([N+](=O)[O-])c2)=C(C#N)C1c1ccco1 (stereo not drawn) | ?

(next part)
Structure | VDR inh
Cc1cc2ccccn2c1C(=O)Nc1cccc(Cl)c1 | -12%
O=[N+]([O-])c1ccc(NC(=S)NCC(c2cccnc2)N2CCOCC2)cc1 (stereo not drawn) | 10%
COc1ccc(-c2nc3ccccc3c(=O)n2NC(=O)c2cccnc2Cl)cc1OC | 0%
C/C(=N\NC(=O)Cc1ccccc1Cl)c1cccnc1 | 19%
CN(Cc1nccn1C)C(=O)CCc1nnc(CCC2CCCCC2)o1 | 20%
NC(=O)CCCC1=NS(=O)(=O)c2ccccc2N1 | 16%
Cc1cccc(N2C(=O)C3CC3C2=O)c1 (stereo not drawn) | -15%
COc1ccc(N2CCN(C(CNC(=O)c3ccc4c(c3)OCO4)c3cccnc3)CC2)cc1 (stereo not drawn) | -1%
CCNS(=O)(=O)c1ccc(NC(=O)Nc2ccc3c(c2)OCO3)cc1 | 11%
COc1cccc(C2=NOC(C(=O)NC3CCCCC3)C2)c1 (stereo not drawn) | 11%

(further entries)
Structure | VDR inh
N/C(CS(=O)(=O)c1ccccn1)=N\OC(=O)c1ccc(Cl)cc1 | 2%
Cn1c(=O)c2c(ncn2CC(=O)OCC(=O)Nc2cccc(Cl)c2)n(C)c1=O | 1%
CCOc1ccc(Nc2sc(C(=O)c3ccc4c(c3)OCO4)c(N)c2S(=O)(=O)c2ccc(C)cc2)cc1 | 14%
COc1cc(OC)c(NC(=O)Nc2cc(C)on2)cc1Cl | -4%
O=C(O)C1(c2ccccc2)CCN(S(=O)(=O)c2ccc(F)c(F)c2)CC1 | -1%
COc1ccc(-n2c(C)cc(/C=C3\C(=N)N4N=C(CC(=O)N5CCOCC5)SC4=NC3=O)c2C)cc1 | -3%
COc1ncccc1-c1nnn(-c2ccc(Cl)c(Cl)c2)n1 | -4%
N#Cc1c(/N=C/c2cc3ccccc3s2)sc2c1CCC2 | 8%
CC(=O)NC1=NN(C(C)=O)C(c2ccccn2)S1 (stereo not drawn) | 6%
O=C(Cn1ccc(NC(=O)OCc2ccccc2)nc1=O)NCCCc1ccccc1 | -14%

Three entries from above, reformatted.
CCOc1ccc(Nc2sc(C(=O)c3ccc4c(c3)OCO4)c(N)c2S(=O)(=O)c2ccc(C)cc2)cc1
- VDR inh = 14%
Cn1c(=O)c2c(ncn2CC(=O)OCC(=O)Nc2cccc(Cl)c2)n(C)c1=O
- VDR inh = 1%
COc1ncccc1-c1nnn(-c2ccc(Cl)c(Cl)c2)n1
- VDR inh = -4%

In the list so far, these contain a cyano group:
Structure | VDR inh
CC(=O)C1=C(C)NC(SCc2cccc([N+](=O)[O-])c2)=C(C#N)C1c1ccco1 (stereo not drawn) | ?
N#Cc1c(/N=C/c2cc3ccccc3s2)sc2c1CCC2 | 8%

Three of the entries above in order of their number in VDR inh, low to high:
Structure | VDR inh
O=C(Cn1ccc(NC(=O)OCc2ccccc2)nc1=O)NCCCc1ccccc1 | -14%
COc1cc(OC)c(NC(=O)Nc2cc(C)on2)cc1Cl | -4%
COc1ccc(-n2c(C)cc(/C=C3\C(=N)N4N=C(CC(=O)N5CCOCC5)SC4=NC3=O)c2C)cc1 | -3%

New compounds follow
Structure | VDR inh
CCC(C(=O)NCc1ccccc1OC)c1ccccc1 (stereo not drawn) | -6%
Cc1onc(-c2ccccc2)c1C(=O)N/N=C(\N)COc1ccc(Cl)cc1 | 21%
COc1ccc(NC(=O)CCN=C2NS(=O)(=O)c3ccccc32)cc1S(=O)(=O)N(C)C | 2%
CCOc1ncccc1C(=O)OCC(=O)c1ccc(Cl)s1 | 27%
Cc1ccc(OCCN2C(=O)OC(C)(C)C2(C)O)cc1 (stereo not drawn) | -5%
O=C(C[n+]1cc(Br)cc(Br)c1)c1ccc(Cl)cc1 | 9%
CCCNC(=O)c1noc2c1CCc1ccccc1-2 | -3%
CN(C)C(=O)COC(=O)c1ccccc1Nc1ccc(SC(F)F)cc1 | -16%
COc1ccc(Nc2nnc(-c3ccc(C)cc3)c3ccccc23)cc1C(=O)N1CCCCC1 | 0%
Fc1cccc(Cl)c1CNCCCSc1ncccn1 | -7%

(more compounds)
Structure | VDR inh
CC(C)CN(CCCNC(=O)CN1C(=O)COc2ccc(S(=O)(=O)N3CCC(C)CC3)cc21)CC(C)C | -15%
Cc1cc(C)n(C(=O)c2ccc(S(=O)(=O)N3CCCC3)cc2)n1 | 12%
COc1nnc(-c2ccc(N3CCOCC3)c(NC(=O)C3CCCCC3)c2)c2ccccc12 | -7%
COc1ccc(/C=N/NC(=O)CNC(=O)c2ccc(S(=O)(=O)N3CCCC3)cc2)c(OC)c1 | -2%
CCCC(=O)N(c1ccc2oc(-c3ccccc3)c(C(=O)OCC)c2c1)S(=O)(=O)c1ccc(C)cc1 | -18%
O=C(Nc1cc(C(=O)Nc2ccc(S(=O)(=O)O)cc2)cc(C(=O)Nc2ccc(S(=O)(=O)O)cc2)c1)Nc1cc(C(=O)Nc2ccc(S(=O)(=O)O)cc2)cc(C(=O)Nc2ccc(S(=O)(=O)O)cc2)c1 | 5%
COc1ccc(/C=N/NC(=S)NCCc2ccccc2)cc1 | -19%
CC1(C)C(=O)Nc2ccccc2N1C(=O)COC(=O)c1cccnc1 | 8%
CCCn1c(SCCc2ccccc2)nc2c1c(=O)[nH]c(=O)n2C | 3%
O=C(CNCCC1=CCCCC1)Nc1ccccc1N1CCCCC1 | ?

(more compounds)
Structure | VDR inh
COc1ccc(C(=O)NNC(=O)C2(C)CC2(Br)Br)cc1 (stereo not drawn) | -6%
Cc1ccc(C(=O)N2CCN(c3ccc(NC(=O)CSc4ccc(Cl)cc4)cc3)CC2)cc1 | 1%
CCOc1ccccc1NC(=O)CCc1c(C)nn(-c2ccc(N3CCCCC3)nn2)c1C | -7%&2%
CCCOC(=O)CCCCC1SCC(NC(=O)OC)C1NC(=O)OC (stereo not drawn) | -1%
CCOC(=O)C1=C(C)N=C2c3ccccc3C(=O)C2C1c1ccccc1 (stereo not drawn) | -1%
CCC1(c2ccccc2)NC(=O)N(Cc2cccc([N+](=O)[O-])c2)C1=O (stereo not drawn) | 2%
COc1ccc(C(=O)NCc2ccc(-c3nc4ccccc4s3)cc2)cc1OC | 13%
CSc1nc(Oc2cccc(C(F)(F)F)c2)cc(C(F)(F)F)n1 | -23%
Cc1cc(C)cc(NC(=O)COc2coc(CN3CCc4ccccc4C3)cc2=O)c1 | -2%
COC(=O)c1cccnc1-n1c(=O)c2cccnc2n(Cc2cccc([N+](=O)[O-])c2)c1=O | 6%

(continued)
Structure | VDR inh
CCCC(C(=O)Nc1ccc2c(C)cc(=O)oc2c1)c1ccccc1 (stereo not drawn) | 6%
Cc1ccccc1C1CC(c2cccs2)=NN1S(C)(=O)=O (stereo not drawn) | 11%
CC(NC(=O)C1CCCN(S(=O)(=O)c2ccc(-n3cnnn3)cc2)C1)c1ccc(F)cc1 (stereo not drawn) | -10%
CC1CC(=O)NN=C1c1ccc(N(C)C)c([N+](=O)[O-])c1 (stereo not drawn) | 17%
COc1ccc(NC(=O)C(C)N(c2ccccc2)S(C)(=O)=O)cc1 (stereo not drawn) | -29%
NC(=N\N=Cc1ccco1)/C(N)=N/N=Cc1ccco1 | -1%
Cc1cc(N2C(=O)CC(Cc3ccccc3)C2=O)no1 (stereo not drawn) | 21%
Cc1cc(=O)[nH]c(SCc2ccc(Cl)cc2Cl)n1 | 5%
Cc1ccc(OCC(O)Cn2c(=N)n(CCN3CCCCC3)c3ccccc32)cc1 (stereo not drawn) | 12%
CN(C(=O)c1cccc(NC(=O)Cc2ccc(NC(=O)C3CCCN(C(=O)C4CCCC4)C3)cc2)c1)C1CCCC1 (stereo not drawn) | -14%

The list continues.
Structure | VDR inh
c1ccc2c(c1)ncn2-c1ccc(-c2ccnc3ncnn23)cc1 | -9%
Cc1ccc(C2=NN(C(=O)CCCC(=O)O)C(c3ccco3)C2)cc1 (stereo not drawn) | 5%
CC(C)Oc1ccc(/C(O)=C2/C(=O)C(=O)N(CCCn3ccnc3)C2c2cccnc2)cc1 (stereo not drawn) | -6%
COc1ccc(NC(=O)CN2C(=O)CSc3ccc(S(=O)(=O)N(C)C)cc32)cc1OC | 4%
N#Cc1ccccc1OCC(=O)NCCNC(=O)COc1ccccc1C#N | -2%
Cc1cccc(CNc2cc(-c3ccccc3Cl)ncn2)c1 | ?
O=C(COC(=O)c1ccccc1C(=O)N1CCN(c2ccccc2)CC1)NCc1ccccc1 | -10%
COc1cccc(CNC(=O)[C@H](CCSC)NC(=O)N2CCn3c2nc2ccccc23)c1 | -2%
O=C1CN(C(=O)/C=C/c2ccccc2F)c2ccccc2N1 | -5%
C[n+]1cc[nH]c1SCC(=O)c1ccccc1 | -10%

Remaining list, next part
Structure | VDR inh
Cc1c(CC(=O)NCCCCCC(=O)O)c(=O)oc2c(C)c3oc4c(c3cc12)CCCC4 | 8%
Cc1cc2ncc(S(=O)(=O)C(C)(C)C)c(N)n2n1 | 0%
O=C(CN1CCN(Cc2ccccc2Cl)C1=O)NC1CCCCCC1 | 12%
COc1ccc(N(C(=O)Cn2nnc3ccccc32)C2(C(=O)NC3CCCC3)CCCCC2)cc1 | -10%
COc1ccc(/C=C/C(=O)OCC(=O)c2ccc[nH]2)cc1 | 7%
COc1ccc(C(=O)OCCCN(C)C)cc1OC | 6%
Cc1ccc(S(=O)(=O)N2CCN(C(=O)c3ccc(COc4ccccc4)o3)CC2)cc1 | 16%
CC(C)CNC(=O)CN(C)S(=O)(=O)c1ccc(F)cc1 | -6%
CCc1nnc2c(N3CCN(c4cccc(C(F)(F)F)c4)CC3)nc3ccccc3n12 | -1%
Cc1ccc(C(=O)Nc2ccc3ncccc3c2)cc1 | 2%

Continuation:
Structure | VDR inh
COc1cccc2c3c(c(=O)[nH]c12)CC(C)(C)O3 | -17%
CC(=O)Nc1ccc(S(=O)(=O)c2cc(O)ccc2O)cc1 | 10%
CCN(CC)CCC(c1ccc(N(C)C)cc1)c1c(OC)cc(OC)c2c1OC(=O)CC2c1ccc(N(C)C)cc1 (stereo not drawn) | -16%
CCOc1ccccc1NC(=O)COC(=O)c1nc2nccc(C)n2n1 | -5%
COc1ccc(/C=N/NC(=O)c2ccc(NS(=O)(=O)c3cccs3)cc2)cc1 | 34%[activator]
CCCCCCCCCCCCCC[N+](C)(C)C | 2%
Cc1csc(NC(=O)c2ccc(Br)s2)n1 | 0%
COc1ccc(N2CCN(S(=O)(=O)c3cc(-c4cc(C)no4)ccc3C(C)C)CC2)cc1 | 25%
COc1ccc(C(=O)C2CCCN(C(=O)c3ccc4cc[nH]c4c3)C2)c(C)c1 (stereo not drawn) | ?
CCOC(=O)c1sc(NC(=O)c2ccncc2)c(C#N)c1C | 45µM*

(listing goes on)
Structure | VDR inh
O=C1N[C@@H](Cc2c[nH]c3ccccc23)COC(=O)[C@H](Cc2ccc(F)cc2)C/C=C\C[C@@H]1CC(=O)N(CCO)Cc1ccccc1 | 3%
CCOC(=O)c1cc(OC(=O)c2ccc(Cl)cc2)n(-c2ccccc2)n1 | -10%
Cc1ccc(OCC(=O)Nc2ccccc2C(=O)NC2CC2)cc1 | 2%
CC(C)NC(=O)c1c2c(nc3ccccc13)CCCC2 | 11%
COc1ccc(C(O)(c2ccccc2)C(C(=O)O)c2ccccc2)cc1 (stereo not drawn) | 17%
Cc1ccccc1OCC(=O)NC(=S)Nc1ccc(N2CCCC2)cc1 | 23%
Cn1c(Nc2ccc(F)cc2)nc2ccccc21 | -13%
CC(CN1CCOCC1)OC(=O)c1ccc2c(c1)OCCO2 (stereo not drawn) | -1%
c1ccc2nc(N3CCCC3)c(N3CCCCC3)nc2c1 | 7%
COc1ccc(C(=O)N(CC2CCCO2)C(C(=O)NC2CCCC2)c2ccc(Cl)cc2)cc1OC (stereo not drawn) | -1%

Additional records.
Structure | VDR inh
COc1cccc(-c2sc3ccc(OC)cc3c2-c2ccc(OCCN(C)C)cc2)c1 | -17%
O=C(O)c1ccc(F)c(S(=O)(=O)Nc2ccccc2Cl)c1 | 13%
O=C(Nc1nnc(C2CC2)s1)c1cc(S(=O)(=O)N2CCN(c3ccccc3)CC2)ccc1Cl | -6%
Cc1ccc(C)c(Cn2nc(-c3ccccc3)ccc2=O)c1 | -4%
O=C(NCCCN1CCOCC1)c1ccccc1-c1ccccc1 | 5%
CC(=O)c1c(C)[nH]c(C(=O)N2CCCC(C)C2)c1C (stereo not drawn) | -3%
Cc1ccc(C(=O)N2CCN(c3ccccc3F)CC2)cc1NC(=O)c1nsc2ccccc12 | -3%
O=C(OCc1nnc(-c2ccccc2)o1)c1cc(=O)c2ccccc2o1 | -9%
Cc1ccc(S(=O)(=O)N2CC[C@@H]2C(=O)O)cc1 | 6%
COc1ccc(NC(=O)c2cc(N3C(=O)C4C5CCC(C5)C4C3=O)ccc2Cl)c(OC)c1 (stereo not drawn) | -14%

Assay outcomes: PubChem BioAssay, National Center for Advancing Translational Sciences (NCATS)
